Source: PubChem (Broad Institute)
UUG fidelity: modulators of yeast start codon fidelity, primary screen, whole organism, S. cerevisiae, single point, plate reader | S. cerevisiae UUG-firefly luciferase reporter, luminescence/redox ratio | activity score, % at 18.7 µM | 350,000 tested, 0.13% active | AID 602363, 2012;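 active = replicate mean at a twofold rise or more, about +100% in these data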;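 note: firefly luciferase made from a UUG start codon reports start codon fidelity; reporter light over untreated wells divided by growth signal over untreated wells; some hits fall short of that in this replicate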
Env fusion inh: inhibitors of HIV-1 Env-driven cell-cell fusion, primary screen, HeLa-JRFL effector, CEM21 target cells, luciferase; 360,000 tested, 1.1% active; AID 651610, 2012; inhibition, % at 12.3 µM;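 active = mean replicate inhibition score of at least 50 and every replicate individually at or above 50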;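 note: 0% = plate neutral controls and 100% = maraviroc near 300 nM; one replicate is shown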
Numbers without * were called inactive; [ ] = another dose, or the depositor's remark. The list is partial; count on the stated rates, not on these rows.

Molecule	UUG fidelity	Env fusion inh
C[C@@H]1CN([C@H](C)CO)C(=O)c2cccc(NS(=O)(=O)c3ccc(F)cc3)c2O[C@@H]1CN(C)S(=O)(=O)c1ccc(F)cc1	6	-4[16.7 µM]
C[C@@H](NC(=O)C[C@H]1CC[C@@H]2[C@H](COC[C@@H](O)CN2Cc2ccc(C(F)(F)F)cc2)O1)c1ccccc1	7	-8[16.7 µM]
CC(C)NC(=O)NCC[C@H]1CC[C@H](NS(=O)(=O)c2ccc(-c3ccccc3)cc2)[C@H](CO)O1	11	-3[16.7 µM]
C=CCN1C(=O)[C@@]2(O[C@@H](CCn3cc(CCO)nn3)[C@H]([Si](C)(C)c3ccc(OC)cc3)[C@H]2C)c2cc(N3CCOC3=O)ccc21	-4	-25[16.7 µM]
CCCNC(=O)N(C)C[C@@H]1Oc2ncc(C#CC3CCCCC3)cc2C(=O)N([C@@H](C)CO)C[C@H]1C	15	30[16.7 µM]
CCCC(=O)Nc1ccc2c(c1)C(=O)N(C)C[C@@H](OC)[C@H](C)CN(Cc1ccccc1)[C@@H](C)CO2	-3	6[16.7 µM]
CC(C)NC(=O)N(C)C[C@@H]1Oc2ncc(C#Cc3ccc(C(F)(F)F)cc3)cc2C(=O)N([C@H](C)CO)C[C@@H]1C	9	-8[16.7 µM]
C[C@H](O)C#Cc1ccc2c(c1)O[C@H](CN(C)Cc1ccncc1)[C@H](C)CN([C@H](C)CO)S2(=O)=O	12	-47[16.7 µM]
COc1ccc(S(=O)(=O)N(C)C[C@H]2OCCCC[C@H](C)Oc3ccc(NC(=O)Cc4ccccc4)cc3C(=O)N([C@H](C)CO)C[C@H]2C)cc1	-8	-16[16.7 µM]
C[C@H](CO)N1C[C@H](C)[C@H](CN(C)Cc2ccc3c(c2)OCO3)Oc2ccc(N(C)C)cc2C1=O	1	-38[16.7 µM]
O=C(NCC[C@H]1CC[C@@H](NC(=O)C2CC2)[C@H](CO)O1)c1cnccn1	-12	-7[16.7 µM]
COc1ccc(S(=O)(=O)Nc2ccc3c(c2)C(=O)N([C@H](C)CO)C[C@H](C)[C@@H](CN(C)C(=O)NC(C)C)OCCCC[C@H](C)O3)cc1	18	-136[16.7 µM]
CNC[C@@H]1Oc2ccc(NC(=O)CCC(F)(F)F)cc2CC(=O)N([C@@H](C)CO)C[C@H]1C	16	-10[16.7 µM]
COc1ccccc1-c1cnc2c(c1)C(=O)N([C@H](C)CO)C[C@@H](C)[C@@H](CN(C)C(=O)c1ccccc1)O2	10	-15[16.7 µM]
COc1ccc(S(=O)(=O)N[C@H]2CC[C@@H](CC(=O)O)O[C@H]2CO)cc1	-6	10[16.7 µM]
C[C@H](CO)N1C[C@H](C)[C@H](CN(C)CC2CCCCC2)Oc2c(NS(=O)(=O)c3cn(C)cn3)cccc2C1=O	-1	-8[16.7 µM]
Cc1noc(C)c1NC(=O)N1C[C@@H](O)COC[C@H]2O[C@@H](CC(=O)NCC3CC3)CC[C@@H]21	0	8[16.7 µM]
C[C@@H]1CCCCO[C@H](CN(C)Cc2ccccc2)[C@H](C)CN([C@@H](C)CO)C(=O)c2cc(NC(=O)Cc3ccccc3)ccc2O1	9	-48[16.7 µM]
CCCNC(=O)N[C@@H]1CC[C@H](CCNS(=O)(=O)c2cccc(F)c2)O[C@H]1CO	-5	-5[16.7 µM]
Cc1noc(C)c1S(=O)(=O)Nc1ccc2c(c1)C(=O)N([C@H](C)CO)C[C@H](C)[C@@H](CN(C)C(=O)NC(C)C)OCCCC[C@H](C)O2	-4	-136[16.7 µM]
CC(C)NC(=O)Nc1ccc2c(c1)C(=O)N([C@@H](C)CO)C[C@@H](C)[C@H](CN(C)CC1CCCCC1)O2	-3	-8[16.7 µM]
C[C@H]1CN([C@@H](C)CO)C(=O)c2cc(-c3cccnc3)cnc2O[C@H]1CN(C)C(=O)c1ccccc1F	-14	-6[16.7 µM]
CCC(=O)N(C)C[C@@H]1Oc2ncc(C#CCc3ccccc3)cc2C(=O)N([C@@H](C)CO)C[C@@H]1C	-4	4[16.7 µM]
C[C@@H]1CN([C@@H](C)CO)C(=O)Cc2cc(NC(=O)CCCCCC(=O)Nc3ccccc3N)ccc2O[C@H]1CN(C)S(=O)(=O)c1cn(C)cn1	10	-14[16.7 µM]
O=C(O)C[C@@H]1C[C@@H]2c3cc(NC(=O)Nc4ccccc4)ccc3O[C@@H]2[C@H](CO)O1	-13	-28[16.7 µM]
C[C@@H]1CN([C@@H](C)CO)C(=O)c2cc(NC(=O)Nc3ccc(F)cc3)ccc2O[C@@H](C)CCCCO[C@H]1CN(C)CC1CCCCC1	29	15[16.7 µM]
N#C[C@@H]1[C@@H](c2ccc(C#Cc3cccnc3)cc2)[C@@H](CO)N1C(=O)C1CCCCC1	-3	9[16.7 µM]
CNC[C@@H]1OCCCC[C@H](C)Oc2ccc(NC(=O)c3ccncc3)cc2C(=O)N([C@@H](C)CO)C[C@@H]1C	2	0[16.7 µM]
C[C@H](CO)N1C[C@H](C)[C@H](CN(C)Cc2ccccc2)Oc2ccc(NC(=O)NC3CCCCC3)cc2CC1=O	3	-43[16.7 µM]
O=C(N[C@@H]1C=C[C@@H](CC(=O)N2CCCCC2)O[C@@H]1CO)c1cccc(F)c1	-8	-9[16.7 µM]

Single records, as listed above. Order of screens: UUG fidelity	Env fusion inh
O=C(O)C[C@@H]1C[C@@H]2c3cc(NC(=O)Nc4ccccc4)ccc3O[C@@H]2[C@H](CO)O1 is listed with -13	-28[16.7 µM]
CC(C)NC(=O)Nc1ccc2c(c1)C(=O)N([C@@H](C)CO)C[C@@H](C)[C@H](CN(C)CC1CCCCC1)O2 is listed with -3	-8[16.7 µM]

(more compounds)
Molecule	UUG fidelity	Env fusion inh
C[C@@H]1CCCCO[C@H](CN(C)C(=O)CCCN(C)C)[C@@H](C)CN([C@H](C)CO)C(=O)c2cc(NS(C)(=O)=O)ccc2O1	-5	-10[16.7 µM]
Cc1noc(C)c1NC(=O)Nc1ccc2c(c1)CC(=O)N([C@@H](C)CO)C[C@@H](C)[C@H](CN(C)Cc1ccc3c(c1)OCO3)O2	-5	-9[16.7 µM]
CN1C(=O)c2cc(NC(=O)c3ccc4c(c3)OCO4)ccc2OC[C@@H]2O[C@H](CC(=O)O)CC[C@H]21	6	-19[16.7 µM]
C[C@H](CO)N1C[C@H](C)[C@@H](CN(C)C)Oc2ccc(NC(=O)Nc3ccccc3)cc2CC1=O	-10	1[16.7 µM]
C[C@H](CO)N1C[C@H](C)[C@H](CN(C)S(=O)(=O)c2ccccc2)Oc2ccc(NC(=O)Cc3cn(C)c4ccccc34)cc2C1=O	-13	16[16.7 µM]
C[C@@H]1CN([C@@H](C)CO)C(=O)c2cc(C#CCN(C)C)cnc2O[C@@H]1CN(C)Cc1cccc(C(=O)O)c1	8	-6[16.7 µM]
C[C@@H]1CN([C@H](C)CO)C(=O)c2cc(C3=CCCC3)cnc2O[C@H]1CN(C)C(=O)NC1CCCC1	9	10[16.7 µM]
Cc1ccc(S(=O)(=O)Nc2ccc3c(c2)C(=O)N([C@H](C)CO)C[C@H](C)[C@H](CN(C)Cc2ccc(C(=O)O)cc2)O3)cc1	-5	13[16.7 µM]
O=C(C[C@@H]1C[C@H]2c3cc(NC(=O)Cc4ccncc4)ccc3O[C@H]2[C@H](CO)O1)NCc1ccc2c(c1)OCO2	-12	-7[16.7 µM]
CCCNC(=O)C[C@H]1CC[C@H]2[C@@H](COc3ccc(NC(=O)c4ccc(Cl)cc4)cc3C(=O)N2C)O1	11	11[16.7 µM]
C[C@@H]1CN([C@H](C)CO)C(=O)c2cccc(NS(=O)(=O)c3ccccc3)c2O[C@@H]1CN(C)Cc1ccc(Oc2ccccc2)cc1	2	21[16.7 µM]
Cc1noc(C)c1NC(=O)N(C)C[C@H]1OCCCC[C@@H](C)Oc2ccc(NS(=O)(=O)c3ccc(F)cc3)cc2C(=O)N([C@@H](C)CO)C[C@H]1C	-1	49[16.7 µM]
COc1ccc(S(=O)(=O)Nc2ccc3c(c2)CC(=O)N([C@@H](C)CO)C[C@H](C)[C@H](CN(C)S(=O)(=O)c2ccc(F)cc2)O3)cc1	1	66*[16.7 µM]
C[C@H](CO)N1C[C@H](C)[C@H](CN(C)C(=O)C2CCOCC2)Oc2ncc(C#Cc3cccc(F)c3)cc2C1=O	-14	15[16.7 µM]
C[C@@H]1CN([C@@H](C)CO)C(=O)c2cc(N(C)C)ccc2O[C@@H](C)CCCCO[C@@H]1CN(C)S(=O)(=O)c1cn(C)cn1	-4	-2[16.7 µM]
C[C@@H]1CN([C@H](C)CO)C(=O)c2cc(-c3cccnc3)cnc2O[C@@H]1CN(C)Cc1ccc(Oc2ccccc2)cc1	-20	0[16.7 µM]
COc1ccc(C#Cc2ccc3c(c2)O[C@@H](CN(C)C(=O)Nc2cccc(OC)c2)[C@@H](C)CN([C@H](C)CO)S3(=O)=O)cc1	4	15[16.7 µM]
CCCC#Cc1cnc2c(c1)C(=O)N([C@H](C)CO)C[C@@H](C)[C@@H](CN(C)C(=O)C1CCOCC1)O2	3	11[16.7 µM]
Cc1ccc(S(=O)(=O)Nc2ccc3c(c2)CC(=O)N([C@H](C)CO)C[C@@H](C)[C@@H](CN(C)S(=O)(=O)c2ccccc2)O3)cc1	3	18[16.7 µM]
CCS(=O)(=O)Nc1ccc2c(c1)C(=O)N(C)[C@H]1CC[C@@H](CC(=O)N3CCCCC3)O[C@H]1CO2	7	-2[16.7 µM]
C[C@@H]1CN([C@@H](C)CO)C(=O)c2cc(C#CCN(C)C)cnc2O[C@@H]1CN(C)Cc1ccncc1	-16	-18[16.7 µM]
C[C@@H]1CN([C@H](C)CO)C(=O)c2cc(NC(=O)c3ccccc3)ccc2O[C@@H](C)CCCCO[C@H]1CN(C)S(=O)(=O)c1ccccc1	-14	28[16.7 µM]
CNC[C@H]1Oc2cc(-c3ccccc3F)ccc2S(=O)(=O)N([C@H](C)CO)C[C@@H]1C	2	-18[16.7 µM]
CCc1csc(N2[C@H](CO)[C@H](c3ccc(-c4ccc(F)cc4)cc3)[C@@H]2C#N)n1	-19	-2[16.7 µM]
C[C@@H]1CN([C@@H](C)CO)S(=O)(=O)c2ccc(C3=CCCC3)cc2O[C@H]1CN(C)C(=O)Cc1ccncc1	12	-19[16.7 µM]
C[C@@H]1CCCCO[C@H](CN(C)C(=O)C2CCCCC2)[C@H](C)CN([C@@H](C)CO)C(=O)c2cc(NC(=O)Nc3ccc(F)cc3)ccc2O1	-7	-4[16.7 µM]
COC(=O)[C@]1(CCS(=O)(=O)c2ccccc2)N=C(c2ccc(OCCCO)cc2)O[C@@H]1c1ccccc1	40	5[16.7 µM]
C[C@H]1CCCCO[C@@H](CN(C)C(=O)Nc2ccc(C(F)(F)F)cc2)[C@@H](C)CN([C@@H](C)CO)C(=O)c2cc(NS(=O)(=O)c3cn(C)cn3)ccc2O1	-11	22[16.7 µM]
CCCC#Cc1cnc2c(c1)C(=O)N([C@H](C)CO)C[C@H](C)[C@@H](CN(C)C(=O)c1cnccn1)O2	20	0[16.7 µM]
C[C@@H]1CN([C@@H](C)CO)C(=O)Cc2cc(NS(=O)(=O)c3cn(C)cn3)ccc2O[C@@H]1CN(C)S(=O)(=O)c1cn(C)cn1	-3	-4[16.7 µM]
C[C@@H]1CCCCO[C@@H](CN(C)C)[C@@H](C)CN([C@H](C)CO)C(=O)c2cc(NC(=O)Nc3cccc4ccccc34)ccc2O1	4	-3[16.7 µM]
C[C@H](O)C#Cc1cnc2c(c1)C(=O)N([C@@H](C)CO)C[C@H](C)[C@@H](CN(C)C(=O)CN(C)C)O2	5	13[16.7 µM]
C[C@@H]1CN([C@@H](C)CO)S(=O)(=O)c2ccc(-c3cccnc3)cc2O[C@H]1CN(C)C(=O)C1CCC1	-14	5[16.7 µM]
C[C@H](CO)N1C[C@H](C)[C@H](CN(C)C)Oc2ncc(Br)cc2C1=O	4	-10[16.7 µM]
C[C@@H]1CN([C@H](C)CO)C(=O)c2cc(NS(C)(=O)=O)ccc2O[C@@H](C)CCCCO[C@H]1CN(C)C(=O)Nc1ccc(F)cc1	8	7[16.7 µM]
C[C@@H]1CN([C@H](C)CO)C(=O)Cc2cc(NC(=O)NC3CCCCC3)ccc2O[C@H]1CN(C)S(=O)(=O)c1cccs1	-8	-42[16.7 µM]

In the list so far, these have an aryl methoxy group:
Molecule	UUG fidelity	Env fusion inh
C=CCN1C(=O)[C@@]2(O[C@@H](CCn3cc(CCO)nn3)[C@H]([Si](C)(C)c3ccc(OC)cc3)[C@H]2C)c2cc(N3CCOC3=O)ccc21	-4	-25[16.7 µM]
COc1ccc(S(=O)(=O)N(C)C[C@H]2OCCCC[C@H](C)Oc3ccc(NC(=O)Cc4ccccc4)cc3C(=O)N([C@H](C)CO)C[C@H]2C)cc1	-8	-16[16.7 µM]
COc1ccc(S(=O)(=O)Nc2ccc3c(c2)C(=O)N([C@H](C)CO)C[C@H](C)[C@@H](CN(C)C(=O)NC(C)C)OCCCC[C@H](C)O3)cc1	18	-136[16.7 µM]
COc1ccccc1-c1cnc2c(c1)C(=O)N([C@H](C)CO)C[C@@H](C)[C@@H](CN(C)C(=O)c1ccccc1)O2	10	-15[16.7 µM]
COc1ccc(S(=O)(=O)N[C@H]2CC[C@@H](CC(=O)O)O[C@H]2CO)cc1	-6	10[16.7 µM]
COc1ccc(S(=O)(=O)Nc2ccc3c(c2)CC(=O)N([C@@H](C)CO)C[C@H](C)[C@H](CN(C)S(=O)(=O)c2ccc(F)cc2)O3)cc1	1	66*[16.7 µM]
COc1ccc(C#Cc2ccc3c(c2)O[C@@H](CN(C)C(=O)Nc2cccc(OC)c2)[C@@H](C)CN([C@H](C)CO)S3(=O)=O)cc1	4	15[16.7 µM]
